# BJeLR viability = lowers viability of BJeLR cells; viability loss activity score, % (no concentration beside the values); BJeLR fibroblasts viability, CellTiterGlo ATP luminescence, 48 h; HRASV12, hTERT and SV40 LT/ST transformed; 30,000 compounds, 0.64% hits; in the data active means viability loss activity score above about 50%; about a fifth of its hits are not listed in these tables;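 further: higher score means fewer live cells and less ATP luminescence; stock transfer was 50 or 100 nL into about 30 µL; 0% = vehicle wells and 100% = a reference killing control; one replicate is shown; the record names a cut of 85%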
# A1 inh = inhibitors of A1 | MEF A1-2A-BIM cells, caspase-Glo luminescence, 3 h; percent of clofoctol signal, DMSO as zero | caspase activation, % (no concentration beside the values) | 21,000 compounds, 0.51% hits | AID 2241;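 active means most replicate scores above 10, or exactly half above 10 with mean activity above 10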;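 further: effector caspase 3 and 7 activity cleaving a DEVD luciferin substrate; 50 nL library stock added to about 30 µL; numbers are from one replicate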
# Active calls of the source: *; · = not tested or not shown.
structure | BJeLR viability | A1 inh
C[C@H](CO)N1C[C@H](C)[C@@H](CN(C)Cc2ccc3c(c2)OCO3)Oc2c(NC(=O)Nc3cccc4ccccc34)cccc2C1=O | -9.5 | ·
C[C@@H]1CN([C@H](C)CO)C(=O)c2cc(NC(=O)c3ccncc3)ccc2O[C@H]1CN(C)S(=O)(=O)c1cn(C)cn1 | 0.3 | -0.5
NNC(=O)Cn1nnc(N2CCCC2)n1 | -1.5 | 0.2
C[C@@H]1CN([C@@H](C)CO)C(=O)c2cc(NC(=O)Nc3ccc(F)cc3)ccc2O[C@H]1CN(C)S(=O)(=O)c1cccs1 | 3.5 | 0.1
CC1CCCC(C)N1C(=O)c1cc2c(s1)-c1ccccc1OC2 (stereo not drawn) | 2.1 | -1.0
C[C@@H]1CN([C@H](C)CO)C(=O)c2cc(NC(=O)Cc3cn(C)c4ccccc34)ccc2O[C@@H]1CN(C)Cc1ccc(Cl)c(Cl)c1 | -3.9 | -0.5
Cc1noc(C)c1S(=O)(=O)Nc1ccc2c(c1)C(=O)N([C@@H](C)CO)C[C@H](C)[C@@H](CN(C)S(=O)(=O)c1cccs1)O2 | -0.1 | -0.2
O=C(Nc1ccc(C2=NCCO2)cc1)c1ccc(C(F)(F)F)cc1 | 7.5 | -1.0
COc1ccc(NC(=O)Nc2cccc3c2O[C@@H](CN(C)S(=O)(=O)c2ccc(Cl)cc2)[C@@H](C)CN([C@H](C)CO)C3=O)cc1 | -4.2 | ·
C[C@@H]1CN([C@@H](C)CO)C(=O)c2cccc(NS(=O)(=O)c3ccccc3)c2O[C@H]1CN(C)S(=O)(=O)c1cn(C)cn1 | 4.2 | ·
C[C@@H]1CN([C@H](C)CO)C(=O)c2cccc(NC(=O)Nc3ccc(F)cc3)c2O[C@H]1CN(C)S(=O)(=O)c1ccccc1 | -12 | ·
CCCS(=O)(=O)c1ccc(NC(=O)Nc2ccc(Cl)cc2Cl)cc1 | 7.8 | 0.1
C[C@@H]1CN([C@H](C)CO)C(=O)c2cc(NC(=O)CCC(F)(F)F)ccc2O[C@H]1CN(C)C(=O)Nc1cccc2ccccc12 | 0.2 | 0.2
COC(=O)c1c(C)oc2ccc(OC(=O)c3ccc(OC)cc3)cc12 | 4.2 | -1.3
CC1CCN(C(=O)c2ccc(-c3nn(C)c(=O)c4ccccc34)cc2)CC1 | 8.0 | -0.2

# (listing goes on)
structure | BJeLR viability | A1 inh
COc1cc(OC)c(NC2c3ncccc3C(=O)N2Cc2cccs2)cc1Cl (stereo not drawn) | 0.6 | ·
C[C@@H]1CN([C@H](C)CO)C(=O)c2cccc(NC(=O)c3nc4ccccc4s3)c2O[C@H]1CN(C)C | 1.8 | ·
Nc1c(C(=O)c2ccc(Cl)cc2)oc2nc(-c3ccco3)cc(-c3cccs3)c12 | 6.4 | 0.8
C[C@H]1CN([C@@H](C)CO)C(=O)c2cccc(NC(=O)c3nc4ccccc4s3)c2O[C@@H]1CN(C)CC1CCCCC1 | -2.8 | ·
C[C@H]1CN([C@@H](C)CO)C(=O)c2cc(NC(=O)Nc3ccc(C(F)(F)F)cc3)ccc2O[C@H]1CN(C)Cc1ccc(-c2ccccc2)cc1 | 1.1 | -0.5
COc1ccccc1-c1coc2cc(O)ccc2c1=O | -2.2 | -0.7
O=C(OC1C(c2c(O)cc(O)c(C(=O)c3ccc(O)cc3)c2O)OC(CO)C(O)C1O)c1cc(O)c(O)c(O)c1 (stereo not drawn) | -2.8 | -0.2
Cn1c(O)c(/C=N/N2CCOCC2)c2ccccc21 | -3.9 | ·
C[C@H]1CN([C@@H](C)CO)C(=O)c2cc(NC(=O)CCC(F)(F)F)ccc2O[C@@H]1CN(C)S(=O)(=O)c1ccccc1 | -0.2 | -0.6
C[C@H](CO)N1C[C@H](C)[C@H](CN(C)C(=O)Nc2ccc(C(F)(F)F)cc2)Oc2ccc(NC(=O)CCCCCC(=O)Nc3ccccc3N)cc2C1=O | -2.5 | ·
C[C@@H]1CN([C@@H](C)CO)C(=O)c2cc(NC(=O)Nc3ccc(C(F)(F)F)cc3)ccc2O[C@@H]1CN(C)Cc1ccc(C(=O)O)cc1 | -1.2 | 0.3
COc1ccc(NC(=O)N(C)C[C@H]2Oc3ccc(NC(=O)NC(C)C)cc3C(=O)N([C@H](C)CO)C[C@@H]2C)cc1 | 4.5 | -1.0
CCOC(=O)N1CCN(CCC(=O)c2ccc(OC)cc2)CC1 | -1.0 | ·
c1ccc2c(c1)CCc1c-2nc2ccccc2c1N1CCOCC1 | -0.3 | 0.3
C[C@@H]1CN([C@@H](C)CO)C(=O)c2cc(NC(=O)C3CCCCC3)ccc2O[C@H]1CN(C)Cc1ccc(C(F)(F)F)cc1 | 1.1 | 0.3

# Next results
structure | BJeLR viability | A1 inh
COc1cc(C(=O)NCc2nnc(SCC(=O)N3CCc4ccccc43)o2)cc(OC)c1OC | 1.8 | ·
C[C@@H]1CN([C@H](C)CO)C(=O)c2cccc(NC(=O)c3cnccn3)c2O[C@@H]1CN(C)Cc1ccncc1 | -3.1 | ·
CNC[C@@H]1Oc2c(NC(=O)Nc3ccc(F)cc3)cccc2C(=O)N([C@@H](C)CO)C[C@H]1C | 3.7 | ·
COc1ccc(CN(C)C[C@H]2Oc3ccc(NC(=O)Cc4cn(C)c5ccccc45)cc3C(=O)N([C@H](C)CO)C[C@@H]2C)cc1 | -0.7 | -0.1
CCn1c(SCC(=O)Nc2ccc(OC)cc2)nc2ccsc2c1=O | -1.9 | 1.5
CNC[C@H]1Oc2c(NC(=O)Nc3c(C)noc3C)cccc2C(=O)N([C@@H](C)CO)C[C@H]1C | -0.1 | ·
CSc1nc2ccc(NS(=O)(=O)c3ccccc3C(F)(F)F)cc2s1 | 1.1 | -0.3
C[C@H](CO)N1C[C@H](C)[C@H](CN(C)Cc2ccc(Cl)c(Cl)c2)Oc2ccc(NC(=O)CCCN(C)C)cc2C1=O | 3.4 | 0.0
COC(=O)Cn1c(=O)c2cccn2c2ccccc21 | 1.3 | 0.5
C[C@H]1CN([C@@H](C)CO)C(=O)c2cc(NC(=O)C3CC3)ccc2O[C@@H]1CN(C)Cc1ccc(Oc2ccccc2)cc1 | -5.4 | 0.5
C[C@@H]1CN([C@@H](C)CO)C(=O)c2cc(NC(=O)Nc3ccccc3)ccc2O[C@H]1CN(C)Cc1ccc(Oc2ccccc2)cc1 | 3.1 | -0.2
Cc1ccc(S(=O)(=O)CC(C)N2CCOCC2)c(S(=O)(=O)CC(C)N2CCOCC2)c1 (stereo not drawn) | 8.7 | 0.3
CCOC(=O)c1cnc2c(ccc3ccccc32)c1NCCOC(=O)C(C)(C)C | -5.5 | ·
NC(=O)C1CCN(S(=O)(=O)c2ccccc2)CC1 | -1.5 | 1.4
C[C@@H]1CN([C@H](C)CO)C(=O)c2cc(NC(=O)Nc3ccc(C(F)(F)F)cc3)ccc2O[C@H]1CN(C)Cc1ccc(C(F)(F)F)cc1 | -3.6 | 0.1

# Further records
structure | BJeLR viability | A1 inh
CC(C)NC(=O)c1ccc(-c2ccccc2)cc1 | -0.1 | -1.7
C[C@@H]1CN([C@H](C)CO)C(=O)c2cc(NC(=O)Nc3ccc(C(F)(F)F)cc3)ccc2O[C@@H]1CN(C)S(C)(=O)=O | -6.7 | -0.2
C[C@H](CO)N1C[C@H](C)[C@H](CN(C)Cc2ccc(-c3ccccc3)cc2)Oc2c(NS(=O)(=O)c3cccs3)cccc2C1=O | 0.6 | ·
CCC(C)C(O)C(C)(O)/C=C/C1=CC2=C(Cl)C(=O)C(C)(O)C(O)C2=CO1 (stereo not drawn) | -3.5 | -0.2
COc1ccc(NC(=O)Nc2cccc3c2O[C@H](CN(C)C(=O)NC(C)C)[C@H](C)CN([C@H](C)CO)C3=O)cc1 | 2.5 | ·
C[C@H](CO)N1C[C@H](C)[C@H](CN(C)S(=O)(=O)c2cccs2)Oc2c(NC(=O)Nc3ccccc3)cccc2C1=O | -2.4 | ·
C[C@@H]1CN([C@@H](C)CO)C(=O)c2cccc(N(C)C)c2O[C@@H]1CN(C)Cc1ccc(-c2ccccc2)cc1 | -7.6 | ·
COc1cc2c(cc1OC)C(C)N(S(=O)(=O)c1ccc(C)cc1)CC2 (stereo not drawn) | -1.4 | -0.4
CCNc1nc(OC)nc(Oc2ccc(/C=N/O)cc2)n1 | 0.9 | -0.1
COc1ccc(NC(=O)N(C)C[C@@H]2Oc3ccc(NS(C)(=O)=O)cc3C(=O)N([C@H](C)CO)C[C@@H]2C)cc1 | -2.3 | -0.6
COc1ccc(S(=O)(=O)N(C)C[C@H]2Oc3c(NC(=O)NC(C)C)cccc3C(=O)N([C@H](C)CO)C[C@H]2C)cc1 | -1.8 | ·
CCN(CC)C(=S)SC1=CCS(=O)(=O)C1 | 1.0 | -0.4
CCOC(=O)CSc1nncc(=O)[nH]1 | -1.0 | ·
C[C@@H]1CN([C@@H](C)CO)C(=O)c2cc(NC(=O)C3CCCCC3)ccc2O[C@@H]1CN(C)S(=O)(=O)c1ccccc1 | 5.5 | 0.5
CC(C)Oc1ccc(C2CC(=O)NNC2=O)cc1 (stereo not drawn) | -0.5 | 0.6

# Later entries:
structure | BJeLR viability | A1 inh
CCC(=O)Nc1ccc(C(=O)c2ccccc2)cc1 | -0.1 | 1.7
CC(C)=CCNc1ncnc2nc[nH]c12 | -3.7 | -0.2
COc1ccc(C(=O)NCCOc2cc(C)cc(C)c2)cc1OC | 3.0 | 0.1
C[C@@H]1CN([C@H](C)CO)C(=O)c2cccc(N(C)C)c2O[C@@H]1CN(C)Cc1ccc2c(c1)OCO2 | -5.8 | ·
CNC(=O)c1ccc2nc(N)sc2c1 | 5.5 | -0.2
Cc1noc(C)c1S(=O)(=O)Nc1cccc2c1O[C@@H](CN(C)S(=O)(=O)c1ccccc1)[C@@H](C)CN([C@H](C)CO)C2=O | -0.1 | ·
CNC(=S)c1sc2ccccc2c1C | -2.8 | -0.4
O=c1c2ccccc2nc(SCc2cccc(F)c2)n1CC1CCCO1 (stereo not drawn) | 1.7 | 0.4
Cc1ccc(C(=O)Cn2c3c(sc2=N)CCCC3)cc1 | 4.2 | -6.6
CN(C1=NC(=O)/C(=C\c2ccccc2Cl)S1)c1ccc(O)cc1 | -1.9 | -0.2
O=C(O)CCN1C(=O)/C(=C/c2ccccn2)SC1=S | -1.5 | -5.6
C[C@H](CO)N1C[C@H](C)[C@H](CN(C)Cc2ccc(-c3ccccc3)cc2)Oc2c(NC(=O)C3CCOCC3)cccc2C1=O | 2.8 | ·
COc1ccc(CN(C)C[C@@H]2Oc3c(NC(=O)Nc4ccc(OC)cc4)cccc3C(=O)N([C@@H](C)CO)C[C@H]2C)cc1 | -0.7 | ·
CC(C)(C)n1ncc2c(=O)n(Cc3ccc(Cl)cc3)cnc21 | 1.7 | -0.7
C[C@@H]1CN([C@H](C)CO)C(=O)c2cc(NC(=O)Nc3ccccc3)ccc2O[C@H]1CN(C)C(=O)Nc1ccccc1 | -5.0 | 0.2

# Going on with the list.
structure | BJeLR viability | A1 inh
O=C(NCc1cccs1)C(NS(=O)(=O)c1cccc2nsnc12)c1ccccc1 (stereo not drawn) | -2.6 | ·
CCC(C(=O)OC)n1cnc2c(nnn2Cc2ccccc2F)c1=O (stereo not drawn) | -2.8 | 1.5
C[C@H]1CN([C@@H](C)CO)C(=O)c2cc(NC(=O)Nc3ccccc3)ccc2O[C@@H]1CN(C)C(=O)Nc1ccc(C(F)(F)F)cc1 | 8.7 | 1.1
COc1ccc(-c2noc(N3CCC(C(=O)NCCN4CCc5ccccc5C4)CC3)n2)cc1 | 8.0 | -1.3
Oc1ccc2oc3c(c2c1/C=N/N1CCCCC1)CCCC3 | 8.3 | -0.8
COc1ccc(CN(C)C[C@@H]2Oc3c(NS(=O)(=O)c4ccc(C)cc4)cccc3C(=O)N([C@H](C)CO)C[C@@H]2C)cc1 | -2.3 | ·
CN1CCN(S(=O)(=O)c2ccc(Br)cc2)CC1 | 9.2 | 0.4
C[C@@H]1CN([C@H](C)CO)C(=O)c2cc(NC(=O)CCN3CCOCC3)ccc2O[C@H]1CN(C)Cc1ccc(C(F)(F)F)cc1 | 1.6 | 0.3
C[C@@H]1CN([C@H](C)CO)C(=O)c2cccc(NC(=O)Nc3ccccc3)c2O[C@H]1CN(C)Cc1ccc(C(F)(F)F)cc1 | -4.6 | ·
Nc1cnn(C2OC(COC(=O)c3ccccc3)C(O)C2O)c(=O)n1 (stereo not drawn) | -2.4 | 0.0
O=C(CCSc1nc(-c2ccco2)cc(C(F)(F)F)n1)NCCc1ccccc1 | -7.1 | ·
O=c1onc(-c2ccccc2)n1-c1cccc(C(F)(F)F)c1 | -1.4 | -0.5
COc1cc(Cc2cc(OC)c(C)cc2OC)c(OC)cc1C | 5.7 | 0.0
C[C@H](CO)N1C[C@H](C)[C@H](CN(C)Cc2ccc(Cl)c(Cl)c2)Oc2c(NC(=O)c3nc4ccccc4s3)cccc2C1=O | -1.5 | ·
C[C@@H]1CN([C@@H](C)CO)C(=O)c2cc(NC(=O)NC3CCCCC3)ccc2O[C@@H]1CN(C)C(=O)NC1CCCCC1 | -1.3 | -0.7

# Not all compounds are listed. The share of hits here may be higher or lower than overall.
